STAT3 SMM = STAT3 binders, primary screen, biochemical, small molecule microarray, single point, set 2 | calls only | AID 624138, 2012 | His-STAT3 binding, anti-His fluorescence | Signal transducer and activator of transcription 3 (Homo sapiens), P40763 | 17,000 tested, 0.2% active;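 active = compounds whose four printed spots each show fluorescence over background unusually high for their array block, chance value under 7%; compounds were printed on slides so no solution concentration is given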;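 also: about 2 pmol printed per array spot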
Target sequence (P40763 whole entry, looked up): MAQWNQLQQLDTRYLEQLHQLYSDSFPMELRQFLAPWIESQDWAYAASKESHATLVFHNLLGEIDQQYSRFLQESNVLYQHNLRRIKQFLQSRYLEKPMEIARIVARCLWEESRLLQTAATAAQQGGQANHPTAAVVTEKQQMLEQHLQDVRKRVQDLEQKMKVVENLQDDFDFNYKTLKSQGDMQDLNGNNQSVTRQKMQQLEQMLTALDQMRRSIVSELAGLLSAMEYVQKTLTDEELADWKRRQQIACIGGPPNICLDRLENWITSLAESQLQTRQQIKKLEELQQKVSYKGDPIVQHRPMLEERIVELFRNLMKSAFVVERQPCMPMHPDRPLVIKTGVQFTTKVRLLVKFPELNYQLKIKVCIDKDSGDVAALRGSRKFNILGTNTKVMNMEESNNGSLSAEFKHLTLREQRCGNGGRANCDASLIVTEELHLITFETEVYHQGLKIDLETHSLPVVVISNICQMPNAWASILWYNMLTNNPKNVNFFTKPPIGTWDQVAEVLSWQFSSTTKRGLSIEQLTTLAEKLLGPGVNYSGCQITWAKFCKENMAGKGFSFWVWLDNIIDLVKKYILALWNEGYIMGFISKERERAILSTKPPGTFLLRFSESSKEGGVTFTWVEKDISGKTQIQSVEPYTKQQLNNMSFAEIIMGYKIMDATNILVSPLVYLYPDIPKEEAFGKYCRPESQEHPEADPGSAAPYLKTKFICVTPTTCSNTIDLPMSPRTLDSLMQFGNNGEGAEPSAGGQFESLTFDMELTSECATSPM
ID4 binder = binders of human ID4 protein, primary screen, biochemical, small molecule microarray, single point; Flag-ID4 binding, fluorescence F/B; calls only; 31,000 tested, 1.2% active;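 active = spot signal over background at p below 0.07 in all four prints; compounds were printed on slides so no solution concentration is given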;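 also: a binder raises fluorescence above local background on the spot; about 2 pmol printed per array spot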
Target sequence (P47928 whole entry, looked up): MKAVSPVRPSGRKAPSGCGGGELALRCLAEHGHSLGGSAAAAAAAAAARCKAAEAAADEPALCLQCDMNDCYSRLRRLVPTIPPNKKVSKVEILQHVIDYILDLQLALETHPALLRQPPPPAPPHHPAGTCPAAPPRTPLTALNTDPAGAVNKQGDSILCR
c-Myc SMM = binders of human c-Myc, primary screen, biochemical, small molecule microarray, anti-His fluorescence. Myc proto-oncogene protein (Homo sapiens), P01106. His-c-Myc binding. calls only. 17,000 tested, 1.5% active. AID 624141, 2012;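 active = spot fluorescence over background with P-value below 7% in all four replicate spots, showing protein binding; compounds were printed on slides so no solution concentration is given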;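 also: score is binary with 100 for all four spots passing and 0 otherwise; about 2 pmol printed per array spot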
p53 mut binder = binders of human mutant p53, primary screen, biochemical, small molecule microarray, anti-GST fluorescence; mutant tumor protein p53 (GST-tagged), Homo sapiens; small molecule microarray binding; calls only; 17,000 tested, 0.4% active;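 active = compounds whose four printed spots each glow above background more than chance allows, each with a p-value under 7%; compounds were printed on slides so no solution concentration is given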;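 also: about 2 pmol printed per array spot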
Calls only; i = inactive; . = not tested or not shown; + = active, no number. A portion of the library, so the mix of outcomes need not match the whole.

Below each SMILES – STAT3 SMM, ID4 binder, c-Myc SMM, p53 mut binder
1	COc1ccc(S(=O)(=O)N(C)C[C@H]2Oc3ccc(NC(=O)Cc4cn(C)c5ccccc45)cc3C(=O)N([C@@H](C)CO)C[C@@H]2C)cc1
→ i, i, i, i
2	CSc1nc2ccc(S(=O)(=O)NCCOc3ccc(Cl)cc3)cc2s1
→ i, i, i, i
3	C[C@H]1CCCCO[C@H](CN(C)CC2CC2)[C@@H](C)CN([C@@H](C)CO)C(=O)c2cc(NS(=O)(=O)c3ccccc3)ccc2O1
→ i, ., i, i
4	C[C@@H]1CN([C@@H](C)CO)C(=O)c2cc(NC(=O)CCC(F)(F)F)ccc2O[C@H]1CN(C)C(=O)Nc1ccccc1
→ i, i, i, i
5	C[C@@H]1CN([C@H](C)CO)C(=O)CCCn2cc(nn2)CO[C@H]1CN(C)S(=O)(=O)c1ccc(Oc2ccccc2)cc1
→ i, i, i, i
6	Cc1noc(C)c1NC(=O)N(C)C[C@H]1Oc2ccc(NC(=O)CCC(F)(F)F)cc2CC(=O)N([C@@H](C)CO)C[C@H]1C
→ i, i, i, i
7	C[C@H]1CN([C@@H](C)CO)C(=O)CCCn2cc(nn2)CO[C@@H]1CN(C)S(=O)(=O)c1ccc(Oc2ccccc2)nc1
→ i, i, i, i
8	CC(C)NC(=O)N(C)C[C@H]1OCCCC[C@H](C)Oc2ccc(NC(=O)Nc3cccc4ccccc34)cc2C(=O)N([C@@H](C)CO)C[C@H]1C
→ i, i, i, i
9	C[C@H]1CN([C@@H](C)CO)C(=O)c2cccc(NC(=O)Nc3cccc4ccccc34)c2O[C@H]1CN(C)S(=O)(=O)c1cccs1
→ i, i, i, i
10	COC(=O)N(C)C[C@H]1OCc2cnnn2CCCC(=O)N([C@H](C)CO)C[C@H]1C
→ i, i, i, i
11	Cc1cc(C(=O)Nc2cccc3c2O[C@@H](CN(C)S(=O)(=O)c2cccs2)[C@@H](C)CN([C@H](C)CO)C3=O)n(C)n1
→ i, i, i, i
12	C[C@@H]1CN([C@@H](C)CO)C(=O)Cc2cc(N(C)C)ccc2O[C@@H]1CN(C)C(=O)Nc1ccc2c(c1)OCO2
→ i, i, i, i
13	CC(C)NC(=O)N(C)C[C@@H]1OCCCC[C@H](C)Oc2ccc(NC(=O)C3CCCCC3)cc2C(=O)N([C@@H](C)CO)C[C@@H]1C
→ i, i, i, i
14	COc1ccc(S(=O)(=O)N(C)C[C@@H]2Oc3ccc(NC(=O)Nc4cccc5ccccc45)cc3CC(=O)N([C@H](C)CO)C[C@@H]2C)cc1
→ i, i, i, i
15	C[C@H]1CN([C@@H](C)CO)C(=O)c2cc(NS(C)(=O)=O)ccc2O[C@H]1CN(C)C(=O)Nc1ccc(F)cc1
→ i, i, i, i
16	C[C@@H]1CN([C@@H](C)CO)C(=O)Cc2cc(NC(=O)NC3CCCCC3)ccc2O[C@H]1CN(C)Cc1ccc2c(c1)OCO2
→ i, i, i, i
17	Cc1cccnc1NC(=O)C(C)Oc1ccccc1 (configuration not stated)
→ i, i, i, i
18	COc1ccc(CN(C)C[C@H]2Oc3c(NC(=O)c4nc5ccccc5s4)cccc3C(=O)N([C@@H](C)CO)C[C@@H]2C)cc1
→ i, i, i, i
19	CC(C)(C)[C@H]1C=C(C(=O)N2CCN(Cc3ccc4c(c3)OCO4)CC2)O[C@@H](OCc2ccc(CO)cc2)C1
→ i, ., i, i
20	CC(C)NC(=O)Nc1ccc2c(c1)C(=O)N([C@H](C)CO)C[C@H](C)[C@@H](CN(C)Cc1ccccc1)O2
→ i, i, i, i
21	C=C1C(=O)O[C@H]2C1[C@H](OC(=O)/C(C)=C/CO)C/C(C)=C\CC[C@@]1(CO)OC21 (some centres not stated)
→ i, ., i, i
22	C[C@@H]1CN([C@H](C)CO)C(=O)Cc2cc(NS(=O)(=O)c3ccc(F)cc3)ccc2O[C@H]1CN(C)S(=O)(=O)c1cn(C)cn1
→ i, ., i, i
23	CC(CNC(=O)c1ccco1)NC(=O)c1ccco1 (configuration not stated)
→ i, +, i, i
24	O=C(C1=C[C@@H](c2ccc(C(F)(F)F)cc2)C[C@@H](OCCCCO)O1)N1CCN(Cc2ccc3c(c2)OCO3)CC1
→ i, i, i, i
25	c1ccc(-c2cc3ccccc3[nH]2)cc1
→ i, i, i, i
26	CCOC(=O)CC(c1ccccc1)S(=O)(=O)O (configuration not stated)
→ i, i, i, i
27	CC(C)C(NC=O)C(=O)N1CCC2Oc3ccc(cc3)/C=C\NC(=O)C(Cc3ccccc3)NC(=O)C21 (configuration not stated)
→ i, ., i, i
28	COc1ccc(NC(=O)Nc2ccc3c(c2)CC(=O)N([C@@H](C)CO)C[C@H](C)[C@H](CN(C)Cc2ccc(-c4ccccc4)cc2)O3)cc1
→ i, ., i, i
29	O=C(COc1ccc(F)cc1)Nc1ncccn1
→ i, i, i, i
30	C[C@H](CO)N1C[C@H](C)[C@@H](CN(C)C)OCCCC[C@H](C)Oc2ccc(NC(=O)CCCN(C)C)cc2C1=O
→ i, i, i, i

Record cards, from the list above:
Record of CC(C)NC(=O)N(C)C[C@H]1OCCCC[C@H](C)Oc2ccc(NC(=O)Nc3cccc4ccccc34)cc2C(=O)N([C@@H](C)CO)C[C@H]1C → STAT3 SMM: i; ID4 binder: i; c-Myc SMM: i; p53 mut binder: i
Record of CC(C)NC(=O)Nc1ccc2c(c1)C(=O)N([C@H](C)CO)C[C@H](C)[C@@H](CN(C)Cc1ccccc1)O2 → STAT3 SMM: i; ID4 binder: i; c-Myc SMM: i; p53 mut binder: i

Going on with the list:
Below each SMILES – STAT3 SMM, ID4 binder, c-Myc SMM, p53 mut binder
31	C=CCn1c(SCc2ccccc2C#N)nnc1-c1ccccc1O
→ i, i, i, i
32	Cc1ccc(S(=O)(=O)N(C)C[C@H]2Oc3ccc(NC(=O)NC4CCCCC4)cc3CC(=O)N([C@@H](C)CO)C[C@H]2C)cc1
→ i, ., i, i
33	C[C@H](CO)N1C[C@H](C)[C@H](CN(C)C(=O)Nc2ccccc2)Oc2ccc(NC(=O)Nc3ccccc3)cc2C1=O
→ i, i, i, i
34	C[C@@H]1CN([C@@H](C)CO)C(=O)Cc2cc(NS(=O)(=O)c3ccc(Cl)cc3)ccc2O[C@H]1CN(C)C(=O)NC1CCCCC1
→ i, i, i, i
35	COc1cc(CO)ccc1OCc1cccc(C(=O)O)c1
→ i, i, i, i
36	Nc1cc(N)nc(SCc2cccnc2)n1
→ i, i, i, i
37	CCNC(=O)N1CCN(CCCC(c2ccc(F)cc2)c2ccc(F)cc2)CC1
→ i, i, i, i
38	CC(C)=CCN[C@H](CO)c1ccccc1
→ i, i, i, i
39	CCOC(=O)CNc1nc2ccccc2n2cnnc12
→ i, i, i, i
40	C[C@H]1CN([C@@H](C)CO)C(=O)c2cccc(NS(C)(=O)=O)c2O[C@H]1CN(C)Cc1ccc2c(c1)OCO2
→ i, i, i, i
41	COc1ccc(C2CC(=O)c3ccc(OC)cc3O2)cc1 (configuration not stated)
→ i, i, i, i
42	C=C(CO)C(=O)O[C@H]1C[C@@]2(C)OC(=O)/C(=C/C)[C@@]23CC[C@@](C)(O)CC(=O)[C@@]1(C(=C)C(=O)OC)O3
→ i, ., i, i
43	Cc1noc(C)c1S(=O)(=O)N(C)C[C@H]1OCCCC[C@@H](C)Oc2ccc(NC(=O)CCCN(C)C)cc2C(=O)N([C@@H](C)CO)C[C@H]1C
→ i, i, i, i
44	C[C@H](CO)N1C[C@H](C)[C@@H](CN(C)C(=O)NC2CCCCC2)Oc2ccc(NC(=O)Cc3ccccc3)cc2C1=O
→ i, i, i, i
45	C[C@@H]1CN([C@H](C)CO)C(=O)Cc2cc(NC(=O)C3CC3)ccc2O[C@H]1CN(C)Cc1ccncc1
→ i, i, i, i
46	O=C(CNC(=O)c1cn(-c2ccccc2)nc1-c1ccccc1)c1ccccc1
→ i, i, i, i
47	C[C@@H]1CN([C@H](C)CO)C(=O)Cc2cc(NC(=O)Nc3ccccc3)ccc2O[C@@H]1CN(C)C(=O)Nc1ccccc1
→ i, i, i, i
48	C[C@H](CO)N1C[C@H](C)[C@H](CN(C)S(=O)(=O)c2cn(C)cn2)OCCCC[C@H](C)Oc2ccc(NC(=O)CCCN(C)C)cc2C1=O
→ i, i, i, i
49	COc1ccc(CN(C)C[C@H]2Oc3ccc(NS(=O)(=O)c4ccc(OC)cc4)cc3CC(=O)N([C@H](C)CO)C[C@@H]2C)cc1
→ i, i, i, i
50	Cc1ccc(S(=O)(=O)N(C)C[C@H]2OCCCC[C@H](C)Oc3ccc(NC(=O)c4ccccc4)cc3C(=O)N([C@@H](C)CO)C[C@@H]2C)cc1
→ i, ., i, i
51	COc1ccc(NC(=O)Nc2cccc3c2O[C@@H](CN(C)S(=O)(=O)c2cccs2)[C@H](C)CN([C@@H](C)CO)C3=O)cc1
→ i, i, i, i
52	CCc1ccccc1NC(=O)CSc1nnc(-c2ccccc2)n1C
→ i, i, i, i
53	C[C@@H]1CN([C@@H](C)CO)C(=O)c2cc(NS(=O)(=O)c3cn(C)cn3)ccc2O[C@@H](C)CCCCO[C@H]1CN(C)C(=O)c1ccccc1
→ i, i, i, i
54	CC(C)NC(=O)Nc1ccc2c(c1)C(=O)N([C@H](C)CO)C[C@H](C)[C@@H](CN(C)S(=O)(=O)c1cccs1)OCCCC[C@H](C)O2
→ i, i, i, i
55	Cc1c(Cl)cccc1NC(=O)CN1CCN(CCO)CC1
→ i, i, i, i
56	O=S(=O)(N[C@@H]1CCCN(Cc2ccc(OCCO)cc2)C1)c1cccc(F)c1
→ i, +, i, i
57	O=C(O)C1=C[C@H](c2csc3ccccc23)C[C@H](OCCCCO)O1
→ i, i, i, i
58	Cc1ccc(S(=O)(=O)N(C)C[C@@H]2Oc3ccc(NC(=O)Nc4ccccc4)cc3CC(=O)N([C@@H](C)CO)C[C@@H]2C)cc1
→ i, ., i, i
59	O=Cc1ccc(NC(=O)CCCCCCC(=O)NOCc2ccccc2)cc1
→ i, ., i, i
60	COC(=O)c1c(NC(=S)Nc2ccc(S(=O)(=O)NC34CC5CC(CC(C5)C3)C4)cc2)sc2c1CCC2
→ i, i, i, i

Next compounds.
Below each SMILES – STAT3 SMM, ID4 binder, c-Myc SMM, p53 mut binder
61	C[C@H](CO)N1C[C@H](C)[C@H](CN(C)CC2CC2)Oc2c(NS(=O)(=O)c3ccc(Cl)cc3)cccc2C1=O
→ i, i, i, i
62	COC(=O)C(CC#Cc1ccc2c(c1)[C@]1(C(=O)N2)[C@H](c2ccc(OCCO)cc2)N2[C@H](c3ccccc3)[C@H](c3ccccc3)OC(=O)[C@H]2[C@@H]1C(=O)N1CCN(c2ncccn2)CC1)C(=O)OC
→ i, i, i, i
63	C[C@H](CO)N1C[C@H](C)[C@H](CN(C)C(=O)NC2CCCCC2)Oc2ccc(NS(=O)(=O)c3ccc(Cl)cc3)cc2CC1=O
→ i, i, i, i
64	O=[N+]([O-])c1ncn(Cc2ccccn2)n1
→ i, i, i, i
65	Cc1ccc(S(=O)(=O)N(C)C[C@@H]2Oc3ccc(N(C)C)cc3C(=O)N([C@@H](C)CO)C[C@@H]2C)cc1
→ i, ., i, i
66	C[C@@H]1CN([C@H](C)CO)C(=O)c2cc(NS(=O)(=O)c3cccs3)ccc2O[C@@H](C)CCCCO[C@@H]1CN(C)C
→ i, i, i, i
67	COc1ccccc1N(CC(=O)O)S(=O)(=O)c1ccccc1
→ i, i, i, i
68	COc1ccc(NC(=O)Nc2ccc3c(c2)CC(=O)N([C@@H](C)CO)C[C@H](C)[C@@H](CN(C)C)O3)cc1
→ i, i, i, i
69	C[C@@H]1CN([C@H](C)CO)C(=O)c2cccc(NC(=O)NC3CCCCC3)c2O[C@H]1CN(C)C
→ i, i, i, i
70	C[C@@H]1CN([C@@H](C)CO)C(=O)c2cc(NC(=O)Nc3ccc4c(c3)OCO4)ccc2O[C@H]1CN(C)C(=O)Nc1ccc(F)cc1
→ i, i, i, i
71	Cc1ccc(S(=O)(=O)N(C)C[C@@H]2Oc3c(NC(=O)C4CC4)cccc3C(=O)N([C@@H](C)CO)C[C@@H]2C)cc1
→ i, ., i, i
72	O=S(=O)(c1cccc(F)c1)N1CCN(Cc2ccc(OCCO)cc2)CC1
→ i, i, i, i
73	Cc1noc(C)c1S(=O)(=O)Nc1ccc2c(c1)C(=O)N([C@H](C)CO)C[C@@H](C)[C@@H](CN(C)Cc1ccccc1)OCCCC[C@@H](C)O2
→ i, ., i, i
74	C[C@H](CO)N1C[C@H](C)[C@@H](CN(C)Cc2ccc(C(=O)O)cc2)Oc2ccc(NC(=O)NC3CCCCC3)cc2C1=O
→ i, i, i, i
75	C[C@@H]1CN([C@H](C)CO)C(=O)Cc2cc(NC(=O)CCC(F)(F)F)ccc2O[C@H]1CN(C)C(=O)Nc1cccc2ccccc12
→ i, i, i, i
76	Cc1noc(C)c1NC(=O)N(C)C[C@@H]1Oc2ccc(NC(=O)NC3CCCCC3)cc2C(=O)N([C@H](C)CO)C[C@H]1C
→ i, i, i, i
77	COc1ccc(NC(=O)CSc2nc3scc(C)c3c(=O)[nH]2)cc1
→ i, i, i, i
78	C[C@H](CO)N1C[C@H](C)[C@@H](CN(C)C(=O)c2ccncc2)OCCCC[C@H](C)Oc2ccc(N(C)C)cc2C1=O
→ i, i, i, i
